Screening data: PubChem BioAssay, Broad Institute
Tg IFNy HTS: T. gondii growth inhibition under IFN-gamma; hit rate 3.8% among 69,000; activity change, negative = inhibition, %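 (about 20 µM by stock and volumes)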; AID 1259416; Toxoplasma gondii growth in IFN-gamma-treated host cells; active compounds read low; reference of the scale not given here;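 active means below -70%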;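 further: host cells are HeLa cells infected with Toxoplasma gondii; parasite growth read as luciferase light; one replicate is shown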
* hit, by the source's call; i = inactive; & = joins results of further samples. Not all compounds are listed; the hit share may differ from the screen's.

Start of the listing, in advance (seven entries):
SMILES	Tg IFNy HTS
O=S(=O)(c1cc(-c2nnc(C3CCC3)o2)co1)N1CCC(N2CCCCC2)CC1	-36
COc1ccc(O)c(C(=O)/C=C/c2cc3ccccc3o2)c1	22
CC(C)C(=O)Nc1ccc2c(c1)C(=O)N(C)[C@@H]1CC[C@@H](CC(=O)NCCc3ccccc3)O[C@H]1CO2	7
Cc1cc(F)ccc1NC(=O)Cn1c(=O)ccc2cc(S(=O)(=O)N3CCCC3)ccc21	11
CC(=O)Oc1ccc(C2OC(=O)c3ccccc3N2C(C)=O)cc1 (stereo not given)	19
COCC(=O)N1CC2(C1)CN(C(=O)Nc1ccccc1F)[C@H](CO)c1[nH]c3cc(OC)ccc3c12	23
CCCc1[nH]ncc1C(=O)N1C[C@@H]2[C@H](C1)[C@H]1CC[C@@H]2O1	2

Results, from the start:
SMILES	Tg IFNy HTS
O=S(=O)(c1cc(-c2nnc(C3CCC3)o2)co1)N1CCC(N2CCCCC2)CC1	-36
COc1ccc(O)c(C(=O)/C=C/c2cc3ccccc3o2)c1	22
CC(C)C(=O)Nc1ccc2c(c1)C(=O)N(C)[C@@H]1CC[C@@H](CC(=O)NCCc3ccccc3)O[C@H]1CO2	7
Cc1cc(F)ccc1NC(=O)Cn1c(=O)ccc2cc(S(=O)(=O)N3CCCC3)ccc21	11
CC(=O)Oc1ccc(C2OC(=O)c3ccccc3N2C(C)=O)cc1 (stereo not given)	19
COCC(=O)N1CC2(C1)CN(C(=O)Nc1ccccc1F)[C@H](CO)c1[nH]c3cc(OC)ccc3c12	23
CCCc1[nH]ncc1C(=O)N1C[C@@H]2[C@H](C1)[C@H]1CC[C@@H]2O1	2
Cc1noc(C)c1S(=O)(=O)N(C)C[C@@H]1OCCCC[C@@H](C)Oc2ccc(NC(=O)CCC(F)(F)F)cc2C(=O)N([C@@H](C)CO)C[C@H]1C	75
CC(=O)c1ccc(N2CCC(C)CC2)c(F)c1	-8
C=CCn1c(=O)c(C(=O)Nc2ccc(C)c(C)c2)c(O)c2ccccc21	313
COc1ccc(Cl)cc1-c1ncncc1C(C)C	5
O=S(=O)(c1ccccc1F)N1CC[C@H]2[C@H](CO)Nc3ccc(C4=CCCCC4)cc3[C@H]21	-66
Cc1cc(-n2c(CCc3ccccc3)nnc2SCC(=O)O)n(C)n1	3
Cc1nc(C)c(C(=O)N2CCc3c(nc(-c4cnccn4)[nH]c3=O)C2)s1	12
CS(=O)(=O)N1CC(=O)N2[C@H](CO)[C@H](c3ccc(C#CCC4CCCC4)cc3)[C@@H]2C1	-34
COc1ccc2[nH]cc(CCN3CC(C(=O)Nc4cc(C)ccc4C)CC3=O)c2c1 (stereo not given)	147
Cn1nnc2cc(C(=O)N3[C@@H]4CC[C@H]3CNC(=O)C4)ccc21	-1
O=S(=O)(N1CCOCC1)N1CCOCC1	-2
C(=C\c1ccccc1)/CN1CCN(Cc2cc3n(n2)CCCNC3)CC1	-47
N#C[C@H]1[C@H](c2ccccc2)[C@H](CO)N1C(=O)Nc1cccc(F)c1	9
CN(C)C(=O)c1cc2c(c(-c3cccc(C4=CCCCC4)c3)n1)[C@H](CCO)N(S(C)(=O)=O)C2	11
c1nc(N2CCC(c3nn[nH]n3)CC2)c2cc[nH]c2n1	10
CC(C)[C@H]1COCc2cnnn2CCC[C@H](C)C(=O)N1	14
Cc1cc(C)cc(S(=O)(=O)N2CCc3nc(-c4ccccc4)sc3C2)c1	-17
CCN(CC(=O)NCc1ccco1)S(=O)(=O)c1ccccc1	-69
Additional compounds follow:
SMILES	Tg IFNy HTS
CCNC(=O)C[C@@H]1CC[C@H]2[C@@H](COC[C@@H](O)CN2C(=O)C2CCCC2)O1	-20
NC(=S)NN=C1C2CC3CC(C2)CC1C3	147
COc1ncc(CN(Cc2sccc2C)CC(C)C)cn1	8
CN(C)Cc1cc(=O)n2c(n1)CN(Cc1cccs1)CCC2	-2
Cc1nc(C)c(C(=O)NC(c2cc(=O)[nH]c(N3CCOCC3)n2)C(C)C)s1 (stereo not given)	17
Cc1nc(C)c(C(=O)N2CCCC2c2nc(C)c(Cc3ccccc3)c(=O)[nH]2)s1 (stereo not given)	-21
CCS(=O)(=O)N1CCn2cc(Cn3cccn3)nc2C1	-3
COc1ccccc1CCC(=O)N1CCC[C@@H]1C(=O)NCCc1csc(-c2ccccc2)n1	21
CCC(=O)N(C)Cc1ncc(C(=O)NCc2ccccc2)c(-c2cnc(C)cn2)n1	-24
CC(=O)Nc1cccc(NC(=O)C(=O)NCCc2csc(-c3ccc(F)cc3)n2)c1	21
COc1ccc(C2CCN(C(=O)N3CCOCC3)CC2)cc1	113
O=C(c1cscn1)N1CC2CN(Cc3cccc(F)c3)C2C1 (stereo not given)	-4
CN(C)CCCCC(=O)Nc1ccc(NC(=S)NC(=O)c2ccc(C(C)(C)C)cc2)cc1	11
O=C(Nc1ccc(F)cc1)N1CC(=O)N2[C@H](CO)[C@H](c3ccc(C4=CCCC4)cc3)[C@@H]2C1	-33
C[C@@H]1CN([C@H](C)CO)C(=O)Cc2cc(NS(=O)(=O)c3cccs3)ccc2O[C@@H]1CN(C)CC1CCCCC1	-13
CN1C(=O)c2cc(NC(=O)Nc3ccccc3Cl)ccc2OC[C@@H]2O[C@H](CC(=O)NCCCN3CCOCC3)CC[C@H]21	1
COc1cccc2c1OCC(CN1CCC(O)(c3ccc(C)cn3)CC1)=C2	-29
C[C@H]1CN([C@@H](C)CO)C(=O)c2cc(NS(=O)(=O)c3cn(C)cn3)ccc2O[C@H]1CN(C)S(=O)(=O)c1ccc(F)cc1	-20
CN(C)C(=O)N1CCOC2(CCCN(c3cccc(C#N)n3)C2)C1 (stereo not given)	4
C[C@H]1CCCCO[C@H](CN(C)Cc2ccncc2)[C@@H](C)CN([C@@H](C)CO)C(=O)c2cc(NC(=O)Cc3ccccc3)ccc2O1	104
Cc1nc(NCC2CC(=O)N(C(C)C)C2)c2cnn(C)c2n1 (stereo not given)	7
COc1ccc(CN(CCN(C)C)c2ncccn2)cc1	15&10
CC1CCN(C(=O)CCNc2c(-c3cccc(F)c3)nc3cnccn23)CC1	177
CCOC(=O)c1csc(Cn2nc(C)c(Br)c2C)n1	16
Cc1ccc2[nH]c(=O)c(-c3nc(-c4ccccc4C)no3)c(O)c2c1	63
Going on with the list:
SMILES	Tg IFNy HTS
COc1ccccc1NC(=O)c1ccc(CSc2ncccn2)cc1	221
COC(=O)c1cc2n(n1)CCCN(C(=O)Cc1[nH]nc3ccccc13)C2	144
CN(Cc1ccc(-c2nc(-c3cccnc3)cc(=O)[nH]2)cc1)Cc1ccsc1	-33
NCC(=O)CCC(=O)OCc1ccccc1	9
Cc1nnnn1CCC(=O)N1CCc2[nH]nc(-c3cccc4ccccc34)c2C1	-5
O=C([C@H]1N[C@H]2c3ccc(-c4ccc(F)cc4)c(=O)n3C[C@H]2[C@@H]1CO)N1CCc2ccccc2C1	1
CC1=C(C(=O)Nc2cccc(F)c2)C2(CCN(S(C)(=O)=O)CC2)OC1=O	12
CC(C)c1nccn1CC(c1ccc(F)cc1)N1CCCC1 (stereo not given)	-3
Cc1ccc(C2(O)CCN(C(=O)c3ccccc3NC(=O)C(C)C)CC2)nc1	9
COCCN1CCC12CCN(Cc1cccs1)CC2	60
O=C1C[C@@H](c2ccccc2)C(=O)N[C@@H](c2ccccc2)C/C=C\C[C@@H](c2ccccc2)N1	-25
CCc1ncc(C(=O)NC2CC(=O)Nc3ccccc32)cn1 (stereo not given)	-1
O=C1CCCN1C1CCN(c2ncccc2C(F)(F)F)CC1	-2
Cc1nc(-c2ccccc2)nc2c1COCC21CCN(CC(C)C)C1 (stereo not given)	-17
Brc1cccc(-c2nc(-c3ccccc3)c3ccccn23)c1	46
CCCC(=O)Nc1ncnc2c1ncn2C1OC2COP(=O)(O)OC2C1OC(=O)CCC (stereo not given)	14
COc1cc(CN2CCC(c3nnc(-c4scnc4C)o3)CC2)cc(OC)c1OC	16
Oc1ccccc1OCCCCCOc1ccccc1O	-61
C[C@@H]1CN([C@H](C)CO)C(=O)Cc2cc(NS(=O)(=O)c3cccs3)ccc2O[C@H]1CN(C)CC1CCCCC1	-33
O=C1CC(c2ccncc2)C2(CCN(C(=O)c3ccc[nH]3)CC2)N1 (stereo not given)	-2
O=C(CCC1CCCC1)N1CCC2(CC1)Nc1ccc(Cl)cc1-n1cccc12	57
COc1cc(C)c(-c2nc(CN3CCOC(CCO)C3)c(C)o2)cc1C (stereo not given)	36
O=C(NC1CCN(Cc2ccccc2)CC1)c1ccc(I)cc1	10&18
COc1c[nH]c(C(=O)N2CCCC(c3[nH]ncc3-c3ccccc3)C2)cc1=O (stereo not given)	3
CCC(=O)Nc1ccc2c(c1)OC[C@@H](C)N(Cc1ccccc1)C[C@H](C)[C@@H](OC)CN(C)C2=O	153

Three structures from above, arranged by heavy-atom count, highest first.
SMILES	Tg IFNy HTS
Cc1nnnn1CCC(=O)N1CCc2[nH]nc(-c3cccc4ccccc34)c2C1	-5
COc1cc(C)c(-c2nc(CN3CCOC(CCO)C3)c(C)o2)cc1C (stereo not given)	36
O=C(NC1CCN(Cc2ccccc2)CC1)c1ccc(I)cc1	10&18

The results go on:
SMILES	Tg IFNy HTS
Cc1occc1C(=O)N1CCCn2c(nc(CN3CCCC3)cc2=O)C1	-1
Cc1cccc(C)c1NC(=O)Cn1ncc2c(N3CCN(c4ccccn4)CC3)ncnc21	15
COC(=O)c1scc2c(N3CCC(n4cccc4)CC3)cc(C(F)(F)F)nc12	16
CCC(C)NC(=O)NC1C(NC(=O)NC(C)CC)N(C)C(=O)N1C (stereo not given)	-1
CCCCc1ncc(CN2CCC3(CC2)C(=O)NCCN3C)[nH]1	7
O=c1oc2ccccc2c2c1C(c1ccc3c(c1)OCO3)Nc1ccc3ccccc3c1-2 (stereo not given)	57
COc1cccc(S(=O)(=O)N2C[C@@H](O)COC[C@@H]3O[C@@H](CC(=O)N4CCN(c5ccccc5)CC4)CC[C@H]32)c1	-23
O=C1CC(c2ccccc2)C2(CCN(C(=O)c3cscn3)CC2)N1 (stereo not given)	-2
COc1ccc2c3c(n(C)c2c1)[C@@H](CO)N(CC1CC1)CC31CN(C(=O)Nc2ccc(F)cc2F)C1	167
C[C@H]1CN([C@@H](C)CO)C(=O)Cc2cc(NC(=O)CCN3CCOCC3)ccc2O[C@H]1CN(C)Cc1ccc(C(=O)O)cc1	-12
O=C(CC1SC(=NC2CC3C=CC2C3)NC1=O)Nc1cc(Cl)ccc1Cl (stereo not given)	0
c1ccc2c(c1)OCC(Cn1ccnc1-c1cnc[nH]1)O2 (stereo not given)	-11
Nc1ccnc(N2CCc3onc(-c4ccccc4F)c3C2)n1	-20
O=C(NCCc1ccco1)c1nc(Nc2ccc(F)cc2)c2ccccc2n1	3
COc1cccc2c(O)cc(=O)n(C)c12	-16
Cc1ccc(C)c(NC(=O)c2ccc3ccc(N4CCN(CC5CC5)CC4)n3c2)c1	1
COc1cc(CNC(=O)C2CCCN(c3nc4ccccc4n3C)C2)cc(OC)c1OC (stereo not given)	-49
Cc1noc([C@@H]2C[C@@H]3OCC[C@@H]3N(Cc3sccc3C)C2)n1	62
CCOC(=O)C1SC(c2ccc(Cl)cc2)C(C#N)C1(O)c1ccccc1 (stereo not given)	35
CC(C)C(OC(=O)c1ccco1)C(=O)NCc1ccc2c(c1)OCO2 (stereo not given)	-9
Cc1ccc(NC(=O)N2CCC[C@@]3(C(=O)N(C)C)CN(c4ccccn4)C[C@H]3C2)cc1	7
CNC(=O)c1cc2c(nc1NC(C)C)CCN(c1ccncn1)CC2	-1
CCOC1C2CCC1N(C(=O)CCc1ccccc1)CCO2 (stereo not given)	i
COc1ccccc1N1CCN(Cc2nc(-c3ccc(Br)cc3)cs2)CC1	-72*
CCN1c2cc(Cl)ccc2C(=O)NC12CCN(C(=O)NCc1ccccc1)CC2	28
Further entries:
SMILES	Tg IFNy HTS
O=C(N[C@H]1C=C[C@@H](CC(=O)N2CCN(c3ccccc3)CC2)O[C@H]1CO)c1ccccc1	-14
Cc1nc(-c2cc(-c3nc(-c4cc(C(F)(F)F)cc(C(F)(F)F)c4)no3)no2)cs1	25
COc1nn(CC(=O)NC(Cc2ccsc2)c2cccnc2)c(=O)c2ccccc12 (stereo not given)	-6
COc1ccc(CN2C[C@H]3CN(C(=O)c4ccco4)CCO[C@@H]3C2)cc1	157
COc1cccc(N2CC3(CCN(C(=O)NCc4cccc(F)c4)C3)CC2=O)c1 (stereo not given)	-39
CC(=O)O[C@H]1C[C@@H](OC(C)=O)C(C)(C)C2C[C@@H](O)[C@]3(C)C(CC[C@@]4(C)[C@H](c5ccoc5)OC(=O)[C@H]5O[C@]543)[C@]21C (stereo not given in full)	14
CCN1CCC2(CC1)OC(=O)C(C)=C2C(=O)NCCc1ccc(OC)cc1OC	38
CC(C)(C)CC(=O)N1C[C@@H]2c3nc(N4CCOCC4)ncc3CS(=O)(=O)[C@H]2C1	-14
C[C@@H]1CN([C@@H](C)CO)C(=O)c2c(c3ccccc3n2C)-c2ccccc2CO[C@@H]1CN(C)Cc1cccc(C(F)(F)F)c1	-59
CCCOc1c(Cl)cc(C(=O)O)cc1Cl	1
Cc1[nH]c2c(C(=O)NCC3(O)CCCNCC3)cccc2c1C (stereo not given)	0
O=C(NCc1ccc2c(c1)OCO2)c1cn2c(n1)CCCC2	-10

Exported field by field: 4 of the compounds above.
O=C(N[C@H]1C=C[C@@H](CC(=O)N2CCN(c3ccccc3)CC2)O[C@H]1CO)c1ccccc1
  Tg IFNy HTS: -14

Cc1nc(-c2cc(-c3nc(-c4cc(C(F)(F)F)cc(C(F)(F)F)c4)no3)no2)cs1
  Tg IFNy HTS: 25

COc1nn(CC(=O)NC(Cc2ccsc2)c2cccnc2)c(=O)c2ccccc12 (stereo not given)
  Tg IFNy HTS: -6

COc1ccc(CN2C[C@H]3CN(C(=O)c4ccco4)CCO[C@@H]3C2)cc1
  Tg IFNy HTS: 157
